Screening data deposited in PubChem BioAssay by several laboratories.
PrP 5UTR inh: inhibition of PrP 5' UTR reporter expression | cell-based PrP 5' UTR mRNA reporter, plate reader | inhibition, % (no concentration beside the values) | hit rate 0.35% among 340,000 | AID 488862;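 active means every replicate at 50% or more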;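 further: 0 = median of the neutral control wells; tested in H4 reporter cells; numbers are from one replicate; inactives centre near -14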
ugtP null kill: compounds lethal to S. aureus RN4220 ugtP deletion mutant | OD600 growth, 16 h; some inactives read as strong as hits | growth inhibition, % (test concentration not listed) | hit rate 0.54% among 330,000 | AID 1259309;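 active means z-score under -3 and OD600 up to 0.15 on both plates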;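 further: plate controls were untreated wells for no effect and antibiotic for full effect; wells of about 80 µL received 100 nL stock; the first replicate is given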
BJeLR lethal: BJeLR cell viability loss | BJeLR (HRASV12) viability, CellTiter-Glo ATP luminescence, 48 h; reference of the scale not given here | inhibition, % (concentration not given with the values) | hit rate 0.17% among 300,000;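 active means replicate mean above 50%; inconclusive means above 50% but judged a plate artefact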;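 further: 50 nL library stock added to about 25 µL; numbers are from one replicate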
Sa RN4220 lethal: kills Staphylococcus aureus RN4220; S. aureus RN4220 growth, OD600, 16 h; hit rate 0.33% among 330,000; inhibition, % (test concentration not listed); AID 1259311;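 active means z-score of -3 or lower and OD600 up to 0.18 on both plates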;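 further: plate controls were untreated cells for no effect and reference antibiotic for full effect; stock transfer was 100 nL into about 80 µL; one replicate is shown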
Autofluor counter: compound fluorescence in toxin protease inhibitor counterscreen; compound autofluorescence counterscreen, microsphere flow cytometry; stronger effect = higher value; fluorescence intensity (test concentration not listed); hit rate 3.1% among 360,000;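 active means at least 3 SD above the mean of all compounds, about 16000 in these data; inconclusive means too few beads counted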;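 further: 100 nL of 1 mM stock went into each well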
Mtb hypoxia rep: reduces hypoxia-regulated biosensor signal in M. tuberculosis. hit rate 0.1% among 300,000. fluorescence inhibition, % (concentration not given with the values). M. tuberculosis hypoxia-regulated fluorescent reporter, fluorescence. AID 1159583;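 active means 35 to 45% if threefold the growth effect, above 45% if 1.5-fold the growth effect; inactive means the rest, general growth blockers included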;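 further: wells of about 50 µL received 100 nL stock; 0% = vehicle wells and 100% = reference inhibitor wells; whole bacteria with a GFP reporter of the hypoxia response; strong numbers were not always called active; many hits fall short of the cut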
Mtb hypoxia rep growth: recorded beside Mtb hypoxia rep, whose call it bears; growth inhibition, %; measured here: M. tuberculosis growth (absorbance);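 0% = vehicle and 100% = reference antibiotic; read after six days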
* marks the source's active call; other numbers are inactive results; ? = inconclusive; . = no result given.

Start of the data: the first 3 compounds as a preview:
entry | canonical_smiles | PrP 5UTR inh | ugtP null kill | BJeLR lethal | Sa RN4220 lethal
1 | COc1ccc(C)cc1N/C(N)=N/c1nc(C)cc(C)n1 | 2 | 4 | 5 | 1.8
2 | COC(=O)c1ccc(NC(=O)CN2CCN(c3ccccc3)CC2)cc1 | -33 | -5 | -2 | 4.8
3 | CC(=O)Nc1ccc(S(=O)(=O)NNC(=O)CCc2ccccc2)cc1 | -6 | 12 | -12 | 2.5

entry | Autofluor counter | Mtb hypoxia rep | Mtb hypoxia rep growth
1 | 2041 | 6 | 4
2 | 7395 | -1 | 10
3 | 3925 | -11 | -11

The list itself, from the start:
entry | canonical_smiles | PrP 5UTR inh | ugtP null kill | BJeLR lethal | Sa RN4220 lethal
1 | COc1ccc(C)cc1N/C(N)=N/c1nc(C)cc(C)n1 | 2 | 4 | 5 | 1.8
2 | COC(=O)c1ccc(NC(=O)CN2CCN(c3ccccc3)CC2)cc1 | -33 | -5 | -2 | 4.8
3 | CC(=O)Nc1ccc(S(=O)(=O)NNC(=O)CCc2ccccc2)cc1 | -6 | 12 | -12 | 2.5
4 | Cc1oc(-c2cccc(Cl)c2)nc1CN1CCC(C(=O)NCC2CCCO2)CC1 (stereo not drawn) | -32 | -5 | 1 | -1.6
5 | Cc1ccc(C(=O)NCCCc2ccccc2)c(C)c1 | -61 | 11 | 2 | 5.3
6 | CN1CCN(C(=O)/C(=C/c2cccs2)NC(=O)c2ccco2)CC1 | -28 | 3 | -6 | 6.8
7 | CC1(C)Cc2c(sc3ncnc(N)c23)CO1 | -23 | 5 | 6 | 0.5
8 | O=C(CSc1n[nH]c(C2CCCC2)n1)NC1CCCC1 | -22 | 2 | 2 | -3.3
9 | C=CCNC1=C(Cl)C(=O)c2ccccc2C1=O | -25 | 90* | -10 | 95*
10 | COc1cccc(-c2ccc(SCc3ccccn3)nn2)c1 | -73 | -8 | 20 | -0.1
11 | O=C(O)CCNC(=O)/C(=C\c1ccco1)NC(=O)c1ccco1 | -2 | 2 | -6 | 1.7
12 | Cc1sc2ncnc(NCC(c3ccco3)N3CCCC3)c2c1C (stereo not drawn) | -10 | -5 | -3 | -9.8

entry | Autofluor counter | Mtb hypoxia rep | Mtb hypoxia rep growth
1 | 2041 | 6 | 4
2 | 7395 | -1 | 10
3 | 3925 | -11 | -11
4 | 8657 | 2 | 9
5 | 4969 | 18 | 1
6 | 4324 | 10 | 1
7 | 18415* | 4 | 2
8 | 3250 | -8 | 2
9 | 7194 | -5 | 1
10 | 3429 | -8 | -5
11 | 4035 | 12 | 4
12 | ? | 3 | 4

(listing goes on)
entry | canonical_smiles | PrP 5UTR inh | ugtP null kill | BJeLR lethal | Sa RN4220 lethal
13 | COc1ccccc1CCNC(=O)c1ccc(C)o1 | -17 | -3 | 0 | 2.0
14 | O=C(CC1Oc2ccccc2NC1=O)NCc1ccccc1 (stereo not drawn) | -26 | 10 | -1 | -1.1
15 | COc1cccc(NC(=O)Nc2ccc3nsnc3c2)c1 | -74 | -20 | 4 | -6.4
16 | COc1ccc(-c2csc(NC(=S)NC(=O)c3cccs3)n2)cc1Br | . | 8 | 5 | -4.8
17 | O=C(NCCC1=CCCCC1)C(=O)NCC(c1ccco1)N1CCN(c2ccccc2F)CC1 (stereo not drawn) | -21 | 45 | -5 | 3.4
18 | COC(=O)c1ccc(NS(=O)(=O)NC(=O)c2cn(C)c3ccccc23)cc1 | 2 | 1 | 5 | 2.4
19 | CCOC(=O)C(=O)/C(=C\N(C)C)c1onc(-c2c(F)cccc2Cl)c1C(=O)OC | -9 | -1 | 4 | 2.0
20 | CN(/C(=N\S(=O)(=O)c1ccccc1)c1ccccc1)c1ccc(O)cc1 | -22 | . | -2 | .
21 | Cc1cc([N+](=O)[O-])nn1CCCC(=O)Nc1cc(Oc2ccc(F)cc2)cc([N+](=O)[O-])c1 | -21 | -11 | 0 | 7.4
22 | c1ccc2c(N3CCCCCC3)nc(-c3ccncc3)nc2c1 | -7 | -21 | -11 | 3.4
23 | CN(C)S(=O)(=O)c1cccc(-c2nn(-c3ccccc3)cc2/C=C(\C#N)c2nc3ccccc3[nH]2)c1 | -12 | . | 0 | .
24 | CSCC[C@H](NC(=O)C1CCN(S(=O)(=O)c2ccc(C)cc2C)CC1)c1nc2ccccc2[nH]1 | 4 | -9 | . | -2.7

entry | Autofluor counter | Mtb hypoxia rep | Mtb hypoxia rep growth
13 | 21801* | 11 | 18
14 | 5069 | . | .
15 | 10791 | 1 | 6
16 | . | 22 | 2
17 | 10548 | 4 | 4
18 | 5559 | -2 | 1
19 | 5092 | . | .
20 | 2153 | . | .
21 | 6792 | 13 | 3
22 | 3076 | 7 | 10
23 | 10425 | . | .
24 | 6184 | -21 | -1

Further results
entry | canonical_smiles | PrP 5UTR inh | ugtP null kill | BJeLR lethal | Sa RN4220 lethal
25 | COc1ccc(C(c2oc(CO)cc(=O)c2O)c2oc(CO)cc(=O)c2O)cc1OC | -13 | -73 | -5 | 9.2
26 | N#C/C=C(/c1ccc(F)cc1)N1CCOCC1 | 1 | -1 | 7 | -2.2
27 | Cc1ccc(NC(=O)CCS(=O)(=O)c2ccc3c(c2)NC(=O)C(C)S3)nc1 (stereo not drawn) | -18 | 5 | -13 | 3.3
28 | CCOC(=O)c1nnc(-c2ccc(C)cc2)nc1Sc1cccc(Cl)c1 | -54 | 2 | -15 | 2.5
29 | CC(=O)OC[C@H]1O[C@@H](Sc2cccc3cccnc23)[C@H](OC(C)=O)[C@@H](OC(C)=O)[C@@H]1OC(C)=O | -10 | 4 | 18 | -0.5
30 | O=C(COc1ccc(S(=O)(=O)N2CCOCC2)cc1)NCc1ccccc1 | -25 | -1 | -6 | -2.0
31 | O=c1[nH]c(/C=C/c2ccc(Br)cc2)nc2ccccc12 | -67 | -9 | -10 | -4.2
32 | CCN(CC)S(=O)(=O)c1ccc(N/N=C/c2ccc(O)cc2)nc1 | 1 | . | -5 | .
33 | CC(C(=O)Nc1ccccc1Br)c1ccc([N+](=O)[O-])cc1 (stereo not drawn) | 3 | -3 | 1 | 13
34 | CC(C)(C)C(=O)Nc1ccc(-c2cn3ccsc3n2)cc1 | 1 | 2 | -5 | 3.4
35 | COc1ccc(CCC(C)NCc2ccc(F)cc2)cc1 (stereo not drawn) | -20 | 5 | 6 | 2.1
36 | CCN(CCN(C)C)C(=O)C1CCN(S(=O)(=O)c2c(C)noc2/C=C/c2ccccc2F)CC1 | -6 | -7 | 8 | -5.1

entry | Autofluor counter | Mtb hypoxia rep | Mtb hypoxia rep growth
25 | 4312 | 17 | 6
26 | 4269 | 2 | -18
27 | 4162 | 11 | 8
28 | 2457 | . | .
29 | 2137 | 7 | 3
30 | 6015 | -8 | 0
31 | 3493 | -10 | 6
32 | 4787 | . | .
33 | 2147 | 6 | 6
34 | 2927 | 10 | 13
35 | 4214 | 5 | -3
36 | 5488 | -5 | -4

Remaining list, next part
entry | canonical_smiles | PrP 5UTR inh | ugtP null kill | BJeLR lethal | Sa RN4220 lethal
37 | CCc1ccc2[nH]c(C(=O)Nc3ccc4c(c3)OCO4)cc2c1 | -60 | -12 | 5 | -7.2
38 | CN(CC(=O)Nc1ccccn1)S(=O)(=O)c1ccc(Cl)cc1 | -5 | 14 | 0 | 0.8
39 | O=C(Nc1ccon1)c1cccc(S(=O)(=O)N2CCCCCC2)c1 | -29 | 20 | -1 | 7.1
40 | CCCS(=O)(=O)N1CCN(CC2CC=CCC2)CC1 (stereo not drawn) | -14 | 2 | -5 | -1.5
41 | O=c1[nH]c(=O)n(Cc2ccco2)c2c1C(C(F)(F)F)(C(F)(F)F)N=C(C1CCCCC1)N2 | -17 | -6 | -8 | 2.2
42 | COc1ccc(S(=O)(=O)N2CCCCC2)cc1NC(=O)c1ccc2c(c1)OCO2 | -25 | 3 | 3 | 7.7
43 | O=C(Nc1ccc2c(c1)OCO2)N1CCN(c2ccccc2)CC1 | -28 | 4 | 10 | -0.1
44 | CCCn1c(SCc2cc(=O)[nH]c3ccccc23)nc2c1c(=O)n(C)c(=O)n2C | 4 | -5 | 7 | 3.7
45 | O=C(CCNC(=O)c1ccc(Br)cc1)NCCCN1CCCC1=O | -22 | 0 | . | -2.9
46 | CCCCCCCNc1cccc(C)c1 | -25 | 6 | -6 | 6.0
47 | CC1(C)N([O-])c2cc([N+](=O)[O-])ccc2[N+]1=O | . | -2 | . | -0.4
48 | NC(=O)c1cc(S(=O)(=O)N2CCCCC2)cs1 | -2 | -1 | 12 | 4.1

entry | Autofluor counter | Mtb hypoxia rep | Mtb hypoxia rep growth
37 | 4295 | 4 | -3
38 | 3633 | . | .
39 | 5537 | 6 | 4
40 | ? | 12 | 13
41 | 20476* | -6 | 1
42 | 1957 | 3 | 8
43 | 2161 | 10 | 5
44 | 15104 | -1 | -5
45 | 3770 | 7 | 2
46 | 6275 | -19 | -20
47 | . | -6 | -2
48 | 5414 | 8 | 2

The list continues:
entry | canonical_smiles | PrP 5UTR inh | ugtP null kill | BJeLR lethal | Sa RN4220 lethal
49 | COc1ccccc1C/C(N)=N/OC(=O)COc1ccc(C)cc1 | -16 | 1 | -3 | 4.1
50 | Cn1nccc1C(=O)OCC(=O)Nc1ccc(S(N)(=O)=O)cc1 | -21 | 11 | 2 | -0.9
51 | CCN1CCN(C(=S)Nc2ccc3nc4n(c(=O)c3c2)CCCCC4)CC1 | -1 | 3 | 2 | 4.4
52 | O=C(O)CC(NC(=O)C1CCCCC1)c1ccc(OC2CCCC2)cc1 (stereo not drawn) | -21 | 5 | -2 | 1.3
53 | NC(=NN=Cc1ccco1)SC1CC(=O)N(c2ccc(C(=O)O)cc2)C1=O (stereo not drawn) | . | 7 | . | 4.6
54 | COc1ccc(S(=O)(=O)Nc2ccc(-n3cnnn3)cc2)cc1Br | -10 | 5 | . | 3.0
55 | CCOC(=O)c1csc(NC(=O)CC2CCCC2)n1 | -9 | 6 | 3 | 9.3
56 | CC(C)(C)SCCNC(=O)c1ccccc1 | -18 | 1 | 1 | 2.5
57 | O=C(NC1CC1)c1cccc(NC(=O)c2cnn(-c3ccccc3)n2)c1 | 2 | -5 | . | -3.8
58 | N/C(=N\OC(=O)c1cc(-c2ccccc2)nc2ccccc12)c1ccc(Cl)cc1 | -5 | -17 | -2 | -7.5
59 | Cc1cccnc1NC(=O)c1ccccc1NC(=O)C(C)(C)C | -45 | 13 | 0 | 4.8
60 | COc1ccc(Nc2ccc3c(c2)=NC2(CCCCC2)[N+]=3[O-])cc1 | -31 | 23 | 8 | 38

entry | Autofluor counter | Mtb hypoxia rep | Mtb hypoxia rep growth
49 | 3846 | -4 | -2
50 | 3513 | 9 | 6
51 | 3249 | 13 | 5
52 | 4692 | -10 | -1
53 | . | 7 | 3
54 | 5808 | 5 | 14
55 | 4065 | -4 | -4
56 | 2096 | . | .
57 | 8362 | -12 | 10
58 | 4204 | -5 | -8
59 | 4993 | . | .
60 | 7525 | 16 | 5

2 of these compounds in another layout.
Value order: PrP 5UTR inh	ugtP null kill	BJeLR lethal	Sa RN4220 lethal	Autofluor counter	Mtb hypoxia rep	Mtb hypoxia rep growth
(36) CCN(CCN(C)C)C(=O)C1CCN(S(=O)(=O)c2c(C)noc2/C=C/c2ccccc2F)CC1
  -6	-7	8	-5.1	5488	-5	-4
(37) CCc1ccc2[nH]c(C(=O)Nc3ccc4c(c3)OCO4)cc2c1
  -60	-12	5	-7.2	4295	4	-3

Following part.
entry | canonical_smiles | PrP 5UTR inh | ugtP null kill | BJeLR lethal | Sa RN4220 lethal
61 | CC(C)N(Cc1cnn(C)c1)Cc1nc(-c2ccc(Cl)cc2)no1 | -25 | 8 | 9 | 0.9
62 | CCOc1cc(CN2CCN(C(=O)Cc3ccccc3)CC2)ccc1OC | -5 | 3 | 3 | 2.4
63 | COc1ccc(CNC(=O)CN(c2ccc(C(C)=O)cc2)S(=O)(=O)c2ccc(C)cc2)cc1OC | 12 | 3 | . | 0.8
64 | O=C(c1cccc(N2C(=O)c3ccccc3C2=O)c1)N1CCCCCC1 | -1 | 10 | -1 | 5.3
65 | COc1ccc(OCC(=O)NCCS(=O)(=O)N2CCN(c3ccc(F)cc3)CC2)cc1 | -1 | -1 | 11 | 1.9
66 | CCCC1(C(=O)OCC)NC(c2cc(OC)c(OC)c(OC)c2)C2C(=O)N(CC)C(=O)C21 (stereo not drawn) | 13 | 1 | -8 | 5.7

entry | Autofluor counter | Mtb hypoxia rep | Mtb hypoxia rep growth
61 | 4321 | 12 | 8
62 | 3232 | -1 | -5
63 | 3615 | 0 | 2
64 | 4413 | 9 | 5
65 | 4543 | -5 | -2
66 | 3189 | 0 | 5
